# Assay outcomes deposited in PubChem BioAssay by Broad Institute.
# STK33 kinase inh: human STK33 kinase inhibition; AID 2661; purified STK33, MBP phosphorylation, ADP-Glo luminescence; inhibition, % at 10 µM; 320,000 compounds, 0.073% hits;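 active means inhibition at or above 25%, using the most active replicate where run in duplicate; inactive means inhibition below 25%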
# Target sequence (Q9BYT3 whole entry, looked up): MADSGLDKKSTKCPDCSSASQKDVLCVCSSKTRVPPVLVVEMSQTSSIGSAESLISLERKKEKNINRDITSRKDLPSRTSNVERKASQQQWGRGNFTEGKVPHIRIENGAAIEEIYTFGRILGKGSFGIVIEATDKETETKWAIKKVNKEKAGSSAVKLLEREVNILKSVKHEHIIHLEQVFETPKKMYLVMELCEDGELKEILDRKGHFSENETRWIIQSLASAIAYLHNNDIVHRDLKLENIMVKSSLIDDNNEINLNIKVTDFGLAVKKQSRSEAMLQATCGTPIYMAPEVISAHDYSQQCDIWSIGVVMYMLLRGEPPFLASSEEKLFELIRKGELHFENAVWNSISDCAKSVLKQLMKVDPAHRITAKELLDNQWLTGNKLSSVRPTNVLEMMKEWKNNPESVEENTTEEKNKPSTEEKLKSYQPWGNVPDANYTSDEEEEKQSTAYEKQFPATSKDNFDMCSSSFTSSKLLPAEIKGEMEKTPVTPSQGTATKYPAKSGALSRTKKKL
# * hit, by the source's call; & = joins results of further samples.
molecule	STK33 kinase inh
CC(=O)Nc1ccc2c(c1)C(C)(C)C(C)N2C (stereo unspecified)	0.5
CC1CCN(c2ccc(NC(=O)Cc3ccccc3)cc2)CC1	-1.1
O=C(O)CCC(=O)c1cccc2ccccc12	0.1
CN(C(=O)CN1C(=O)/C(=C/c2ccc(Cl)cc2)SC1=S)C1CCS(=O)(=O)C1 (stereo unspecified)	-1.0
CCCc1nc(NCc2ccccn2)c2nnn(Cc3ccccc3F)c2n1	-0.3
O=C(CC1(O)C(=O)Nc2ccccc21)c1ccccc1O (stereo unspecified)	-2.0
NC(=O)C1CC(=O)N(c2ccc(OCc3c(F)cccc3Cl)cc2)C1 (stereo unspecified)	-1.6
COc1ccc(Nc2nc(N)c([N+](=O)[O-])c(N3CCOCC3)n2)cc1	2.1
COc1cc(C(c2c(C)[nH][nH]c2=O)c2c(C)[nH][nH]c2=O)ccc1OS(=O)(=O)c1ccccc1	-1.5
CCOc1cccc(C(=O)N/N=C/c2ccoc2)c1	0.2
CC(Oc1ccc2c3c(c(=O)oc2c1)CCCC3)C(=O)NCC1CCC(C(=O)O)CC1 (stereo unspecified)	-2.4
Cn1c(SCC(=O)NCCN2C(=O)CSC2=O)nnc1-c1ccccc1	0.7

# (cont.)
molecule	STK33 kinase inh
CC(=O)c1ccc(-n2c(CCC(=O)O)ccc2-c2ccccc2)cc1	-1.0
COc1cc(/C=N/NC(=O)c2ccc(O)cc2)ccc1OCC(=O)N1CC(C)OC(C)C1 (stereo unspecified)	0.6
CCOC(=O)CSc1nnc(CCc2nc3ccccc3[nH]2)n1C	-0.9
CC1CCN(C(=O)c2cc(Cl)nc3ccccc23)CC1	-2.6
COc1ccc(-c2csc(N(CC3CCCO3)C(=O)c3ccco3)n2)cc1 (stereo unspecified)	-1.7
COC(=O)c1sc2ncccc2c1OCc1ccc(Cl)cc1Cl	9.0
CCn1cc(C(=O)NCCN(C)CCc2ccccc2)c(=O)c2cc(S(=O)(=O)N(C)C)ccc21	-1.0
O=C(CN1C2=NCCN2c2ccccc21)c1ccc(Br)s1	0.1
CCOC(=O)c1sc(NC(=O)COC(=O)Cn2cnc3ccccc32)c(C(=O)OCC)c1C	0.5
O=[N+]([O-])c1ccc(N2CCN(c3ccccc3O)CC2)c(Cl)c1	0.0
CCC(C(=O)NCc1ccco1)N(C(=O)CNS(=O)(=O)c1ccc(C)cc1)c1ccccc1F (stereo unspecified)	2.3
S=C(NCc1ccc2c(c1)OCO2)NCc1ccco1	-0.6

# Arranged by number of heavy atoms (descending): 14 of the compounds above
molecule	STK33 kinase inh
CCn1cc(C(=O)NCCN(C)CCc2ccccc2)c(=O)c2cc(S(=O)(=O)N(C)C)ccc21	-1.0
COc1cc(C(c2c(C)[nH][nH]c2=O)c2c(C)[nH][nH]c2=O)ccc1OS(=O)(=O)c1ccccc1	-1.5
COc1cc(/C=N/NC(=O)c2ccc(O)cc2)ccc1OCC(=O)N1CC(C)OC(C)C1 (stereo unspecified)	0.6
CC(Oc1ccc2c3c(c(=O)oc2c1)CCCC3)C(=O)NCC1CCC(C(=O)O)CC1 (stereo unspecified)	-2.4
CCCc1nc(NCc2ccccn2)c2nnn(Cc3ccccc3F)c2n1	-0.3
CN(C(=O)CN1C(=O)/C(=C/c2ccc(Cl)cc2)SC1=S)C1CCS(=O)(=O)C1 (stereo unspecified)	-1.0
Cn1c(SCC(=O)NCCN2C(=O)CSC2=O)nnc1-c1ccccc1	0.7
NC(=O)C1CC(=O)N(c2ccc(OCc3c(F)cccc3Cl)cc2)C1 (stereo unspecified)	-1.6
CCOC(=O)CSc1nnc(CCc2nc3ccccc3[nH]2)n1C	-0.9
O=[N+]([O-])c1ccc(N2CCN(c3ccccc3O)CC2)c(Cl)c1	0.0
O=C(CN1C2=NCCN2c2ccccc21)c1ccc(Br)s1	0.1
S=C(NCc1ccc2c(c1)OCO2)NCc1ccco1	-0.6
CCOc1cccc(C(=O)N/N=C/c2ccoc2)c1	0.2
CC(=O)Nc1ccc2c(c1)C(C)(C)C(C)N2C (stereo unspecified)	0.5

# Going on with the list:
molecule	STK33 kinase inh
COC(=O)CSc1nc2cc(OC)ccc2n1C	-1.1
Cc1ccnc(NS(=O)(=O)c2ccc(NC(=O)c3cncc(Br)c3)cc2)n1	-0.5
COc1ccccc1NC(=O)COC(=O)c1oc2ccccc2c1C	8.8
CCOC(=O)Cc1csc(NC(=O)C(CC(C)C)NC(=O)C2CCCCC2)n1 (stereo unspecified)	-0.2
Cc1ccc(-c2nnn(CC(=O)O)n2)cc1	-0.5
CC1CCCCN1C(=O)Cn1nnc(-c2cccnc2)n1 (stereo unspecified)	-0.9
CCOc1ccc2c(C)nc(NC3=NC(C)(C)C=C(C)N3)nc2c1	1.4
CC(C)NC(=O)c1sc2c(c1C(=O)Nc1cccnc1)CCCC2	0.1
CCOc1ccccc1N=Nc1c(C)[nH]n(C(N)=S)c1=O	-0.9
CCN(CC)S(=O)(=O)c1ccc2oc(C(=O)N3CCc4ccccc4C3)c(C)c2c1	0.2
Cc1cc(C)c2sc(N)nc2c1	-0.4
CC(=O)c1ccc(N2CCN(C(=O)CCCn3c(=O)[nH]c4ccc(Br)cc4c3=O)CC2)cc1	0.2

# Carrying on:
molecule	STK33 kinase inh
CNCC[C@@H](Oc1ccccc1C)c1ccccc1	-1.2
Cc1cc(Cl)cc(Cl)c1OCCOCCN(C)C	-0.7
CC(C)c1ccc(N2C(=O)C3C4C=CC(CC4)C3C2=O)cc1 (stereo unspecified)	-0.9
O=C(COc1nnc2ccccn12)N1CCN(S(=O)(=O)c2ccccc2)CC1	0.6
COc1cccc(C(C(=O)NC2CCCC2)N(Cc2ccc(C)cc2)C(=O)c2ccco2)c1OC (stereo unspecified)	-0.1
CC(C)(C)CNc1cc(N2CCOCC2)ccc1[N+](=O)[O-]	1.5
CCCCCCC(=O)N(O)C1CC(=O)N(c2ccccc2)C1=O (stereo unspecified)	-2.5
O=C(NC1C/C(=N/O)c2cc3c(cc21)OCO3)C(F)(F)F (stereo unspecified)	-3.0
COc1cc(NS(=O)(=O)c2ccc(NC(C)=O)cc2)ncn1	-0.3
Cc1cccc(NC(=S)N(CCCN2CCOCC2)Cc2cn(C)c3ccccc23)c1	-1.5
CCCOc1ccc(C(=O)NCCc2ccccc2)cc1	-0.9
O=c1c2ccccc2nnn1CSc1nnnn1-c1ccc(O)cc1	0.0

# Next compounds.
molecule	STK33 kinase inh
CC(C)c1ccc(NC2CCCN(C(=O)c3n[nH]c4c3CCC4)C2)cc1 (stereo unspecified)	-1.7
CN(C)c1ccc(C(=O)OCC(=O)N2CCOCC2)cc1	-0.9
COc1ccc(S(=O)(=O)N2CCCC2)cc1NC(=O)c1ccccc1F	-0.6
CCCCN1C(=O)C(=O)N(CC(=O)N2N=C3/C(=C/c4ccco4)CCCC3C2c2ccco2)C1=O (stereo unspecified)	0.1
COc1ccc(CNC(=O)CN(C(=O)c2snc(C(N)=O)c2N)c2ccc(F)cc2)cc1	-1.1
CCCN1C(=O)c2ccc(C(=O)Nc3nccs3)cc2C1=O	2.4
O=C(Nc1ccc(CN2CCOCC2)cc1)c1cc2ccccn2n1	1.4
COc1ccccc1N1CCN(C(=O)CN(CCc2ccccc2)S(C)(=O)=O)CC1	-0.8
Cc1cc(N2CCOCC2)nc2ccccc12	3.5
O=C(c1ccccc1)N(CCO)Cc1cc2cc3c(cc2[nH]c1=O)OCCO3	-0.8
CC(=O)CC1(OC(C)=O)C(=O)N(C)c2ccccc21 (stereo unspecified)	-0.3
COC(=O)CSc1nc(NCC(C)C)nc(N2CCOCC2)n1	-0.3

# Next section:
mol	STK33 kinase inh
Fc1ccc(SCCc2ccncc2)cc1	-0.6&-1.0
O=C(N/N=C/c1coc2ccccc2c1=O)c1ccccc1Br	-1.9
O=C(COc1ccc(S(=O)(=O)N2CCCC2)cc1)NCCC1=CCCCC1	-0.7
Cc1cc(=O)[nH]c(N/N=C/c2c(C)nn(-c3ccccc3)c2C)n1	-1.4
CC(C)CNC(C(=O)Nc1ccc([N+](=O)[O-])cc1Br)c1ccccc1 (stereo unspecified)	-0.9
CC(C)CCNC(=O)CN(CCN1CCOCC1)C(=O)Cn1nnc(-c2ccc(F)cc2)n1	1.4
O=C(O)c1ccc(COc2ccccc2C=C2C(=O)c3ccccc3C2=O)cc1	0.8
Cc1ccc2[nH]c(=O)c(C(c3nnnn3CC3CCCO3)N3CCc4ccccc4C3)cc2c1 (stereo unspecified)	-1.2
CCOc1ccc(-c2nnn(CC(=O)N3CCN(c4ccc(F)cc4)CC3)n2)cc1OCC	-2.0
CCN(CC)CC(O)COc1ccc2c(c1)c(C(C)=O)c(C)n2-c1ccccc1 (stereo unspecified)	1.0

# Next entries:
mol	STK33 kinase inh
CN(C(=O)c1cc(S(=O)(=O)N2CCCCC2)c[nH]1)C1CCCCC1	-0.7
CC(=O)N1N=C2c3ccccc3CCC2C1c1cccs1 (stereo unspecified)	-1.7
O=C(NCc1ccccn1)c1cn(-c2ccccc2)nc1-c1ccc(Cl)cc1	0.5
COc1cccc(CN(C)C(=O)c2ccc3nccnc3c2)c1	-0.1
CC(c1ccccc1)n1c(SCC(=O)Nc2ccccc2)n[nH]c1=O (stereo unspecified)	0.7
COCC(=O)Nc1ccc(N(C)C)cc1	-0.6
COc1ccc(-n2ccn3c(CCC(=O)N4CCN(c5cccc(C)c5C)CC4)nnc3c2=O)cc1	-0.8
Cc1ccc(C(=O)Nc2ccc(S(=O)(=O)N3CCOCC3)cc2)cc1Br	-0.3
COc1ccc(N2CC(C)(C)C2=O)cc1	-0.9
CCN(CC)S(=O)(=O)c1ccc(C(=O)NC(=S)N(CCO)Cc2ccccc2)cc1	-2.6

# Additional results.
mol	STK33 kinase inh
O=C(CC12CC3CC(CC(Br)(C3)C1)C2)Nc1nncs1	0.5
CC(C(=O)N1CCOCC1)N1C(=O)c2ccccc2C1=O (stereo unspecified)	-1.0
C=CCN(Cc1nc(-c2ccccc2)no1)C(=O)c1ccc2c(c1)OCO2	0.0
CCOP(=O)(OCC)C(NC(=O)c1ccc(OC)c(OC)c1)c1ccccc1 (stereo unspecified)	-0.2
Cc1cc(=O)oc2c(C)c(OC(C)C(=O)NCCCN3CCCC3=O)ccc12 (stereo unspecified)	-0.7
COc1ccc(C2C(C(=O)NCc3ccccn3)CCC(=O)N2c2cc(OC)c(OC)c(OC)c2)cc1 (stereo unspecified)	-1.8
Clc1ccc(CNc2ncccn2)cc1	-0.3
CCc1nnc(NS(=O)(=O)c2ccc(NCc3ccccc3O)cc2)s1	0.2
C=CCn1c(SCC(=O)Nc2ccccc2C)nnc1-c1ccncc1	-1.0
COc1ccc(Nc2nnc(SC(C(=O)Nc3cc(C)ccc3C)c3ccccc3)s2)cc1 (stereo unspecified)	-2.1

# Additional structures
mol	STK33 kinase inh
COc1ccc(N(C(=O)c2ccco2)C(C(=O)NC2CCCC2)c2cccs2)cc1OC (stereo unspecified)	-2.8
CC(C)(C)c1[nH]nc2c1C(c1ccncc1)C(C#N)=C(N)O2 (stereo unspecified)	-0.5
CC1CCCc2sc3nc(N4CCN(CCO)CC4)n4ncnc4c3c21 (stereo unspecified)	1.9
Cc1cccc(C(=O)OCC(=O)N(CC(C)C)c2c(N)n(Cc3ccccc3)c(=O)[nH]c2=O)c1O	0.2
CCc1ccc(-c2cc3c(=O)n(CC(=O)NCCCN4CCC(Cc5ccccc5)CC4)nc(C)n3n2)cc1	-2.3
CCCCCCCN1C=CC(=O)CC1	-1.0
CCOC(=O)c1c(C)[nH]c(C(=O)COC(=O)C(C)Oc2ccc(Cl)cc2Cl)c1C (stereo unspecified)	0.0
CN(C)c1nc(N)nc(CSc2n[nH]c(-c3ccccc3)n2)n1	6.8
O=C(NCc1ccccc1)c1ccc(S(=O)(=O)N2CCCc3ccccc32)cc1	-0.4
COc1ccc(C(=O)Nc2ccc(N3CCCC3)cc2)cc1OC	-0.2

# (more compounds)
mol	STK33 kinase inh
CCC(=O)Nc1ccc(-c2nc(-c3ccccc3)n(CC(=O)N3CCCCC3)n2)cc1	-0.9
Cc1ccn2c(-c3csc(NCc4ccccc4)n3)c(C)nc2c1	1.2
CCOC(=O)/C(C#N)=C1/SC(CC)C(=O)N1c1ccc(Br)cc1 (stereo unspecified)	-0.9
Cc1cnnc2c1-c1no[n+]([O-])c1CC2	0.2
Cc1cc(NC(=O)Nc2ccc3c(ccn3C)c2)sn1	0.5
CCOC(=O)c1ccc(S(=O)(=O)NNS(=O)(=O)c2ccc(C)cc2)cc1	-0.7
CN(C/C(O)=C(\C#N)c1ccccc1)C1CCCCC1	-1.4
COc1ccc2nc(/N=C\N(C)C)sc2c1	-0.3
COCCCNC(=O)c1ccc(-n2nc(C(F)(F)F)cc2-c2cccs2)cc1	-1.7
Cc1cc(=O)[nH]c(SCc2nc3ncccn3c2Br)n1	-0.4

# Further results.
mol	STK33 kinase inh
O=c1/c(=C/c2ccco2)sc2n1CN(c1ccccc1)CN=2	1.5
O=S(=O)(NCc1ccccc1)c1cccc(S(=O)(=O)N2CCOCC2)c1	11
c1ccc(CNc2nc3ccccc3[nH]2)cc1	-1.0
Cc1cccc(Cc2nnc(CCC(=O)N(C)C3CCOC3)o2)c1 (stereo unspecified)	-1.6
O=C(NCCCO)/C(=C/c1ccco1)NC(=O)c1ccc(Br)o1	0.1
O=C(COc1ncnc2sccc12)N1CCN(S(=O)(=O)c2ccc(Cl)cc2)CC1	-0.5
Cc1ccc(S(=O)(=O)N(CC(=O)NCCSCc2ccco2)c2ccc(F)cc2)cc1	0.6
CC(C)OCCCn1c(=O)c2ccccc2n2c(CCC(=O)N3CCN(c4ccccn4)CC3)nnc12	-0.1
O=C(NCCS(=O)(=O)N1CCN(c2ccccc2F)CC1)C1CC(=O)N(c2ccccc2)C1 (stereo unspecified)	-2.1
COc1cc(OC)cc(C(=O)Nc2cccc(-c3ccc(N4CCOCC4)nn3)c2)c1	0.1

# (cont.)
mol	STK33 kinase inh
CCc1ccccc1NC(=O)CSc1nc2n[nH]c(C)c2c(=N)n1-c1cccc(OC)c1	0.3
Cc1cc(Cl)ccc1OC(C)C(=O)Nc1ccc(S(=O)(=O)Nc2cnc3ccccc3n2)cc1 (stereo unspecified)	-2.3
COc1cc(NC(=S)N2CCCC(CO)C2)cc(OC)c1 (stereo unspecified)	-1.8
CC(Nc1nc(-c2ccc(F)cc2)cs1)c1nc2cc(Cl)c(Cl)cc2n1CCCO (stereo unspecified)	0.0
O=C(NCCCN1CCOCC1)c1cc(Cl)ccc1[N+](=O)[O-]	0.8

# This is a subset, and most or all hits are left out here.
